VDR inhibitor: Inhibitors of the vitamin D receptor (VDR): qHTS; VDR-SRC2-3 peptide fluorescence polarization, 2 h; Potency, µM, without a hit: max response, negative = inhibition, usual class: inhibitors; hit rate 0.93% among 400,000; active means well fitted inhibition curve with a large enough effect; inconclusive means small, poorly fitted or top-dose-only effect, or another doubt; inactive means no such curve, though single readings can be large or run the other way; further: series mostly up to about 120 µM
Target sequence (P11473 whole entry, looked up): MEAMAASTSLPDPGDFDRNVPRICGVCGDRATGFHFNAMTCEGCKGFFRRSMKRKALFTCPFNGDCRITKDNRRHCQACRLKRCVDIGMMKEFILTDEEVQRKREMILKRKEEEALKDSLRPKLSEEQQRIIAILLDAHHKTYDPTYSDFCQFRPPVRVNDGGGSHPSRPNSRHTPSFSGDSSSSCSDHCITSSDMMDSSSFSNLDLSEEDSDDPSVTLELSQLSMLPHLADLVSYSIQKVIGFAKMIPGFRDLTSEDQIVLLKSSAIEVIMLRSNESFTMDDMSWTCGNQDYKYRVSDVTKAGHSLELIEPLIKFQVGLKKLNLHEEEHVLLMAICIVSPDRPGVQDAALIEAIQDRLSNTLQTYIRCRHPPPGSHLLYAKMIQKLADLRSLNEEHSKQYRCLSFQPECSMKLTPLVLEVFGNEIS
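Measured by FP: displacement of SRC2-3 coactivator peptide from VDR by library compounds, following a two-hour ambient incubation.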
Starred values were filed as active, the others as inactive; u = inconclusive; & = joins results of further samples; [ ] = remark or other dose. On the % scale 0 is the no-effect control and ±100 the full control effect; potency means the concentration at half of the fitted maximal effect. Not all compounds are listed; count on the stated rates, not on these rows.

SMILES	VDR inhibitor
NC(=S)/N=C/c1c(O)[nH]c(=O)[nH]c1=O	-19%
COc1ccc(-n2c(-c3ccc(C)cc3)nc3ccccc3c2=O)cc1	-14%
COc1cc(C(c2c(C)[nH]n(-c3ccccc3)c2=O)c2c(C)[nH]n(-c3ccccc3)c2=O)cc(OC)c1OC	u
N#Cc1ccccc1Cn1cc(C(=O)C2CC2)c2ccccc21	13%
NC(=O)c1ccsc1NC(=O)COC(=O)Cc1ccccc1	6%
O=C(O)C1Cc2ccccc2N2CCCC12 (stereo not given)	-1%
Cc1ccc(OCC(=O)N2CCN(Cc3ccc4c(c3)OCO4)CC2)cc1	-14%
CC(C)(C)C(=O)O[C@H]1CC[C@@]2(C)C(=CC(=O)C3C2CC[C@]2(C)C(=O)[C@H](O)CC32)C1 (stereo not given in full)	9%
NS(=O)(=O)c1ccc(N=Cc2c(O)n(C3CCCCC3)c(=O)n(C3CCCCC3)c2=O)cc1	-3%
CCN1CC=C(c2c[nH]c3ccccc23)CC1	2%
COc1cccc(-n2c(/C=C\c3ccc(Cl)cc3)nc3ccccc3c2=O)c1	u
CC(=O)OC12COC1CC(O)C1(C)C(=O)C(O)C3=C(C)C(O)CC(O)(C(OC(=O)c4ccccc4)C21)C3(C)C (stereo not given)	-16%
CC1CCCN(C(=O)CCl)C1 (stereo not given)	5%
COc1ccc(C2=NCC(=O)N(CC(=O)NCc3ccco3)c3sc4c(c32)CCCC4)cc1OC	11%
O=C(CN1CCCCC1c1cccnc1)c1ccccc1 (stereo not given)	-14%
CCOc1ccc(-n2c(O)c(C=Nc3ccc(N4CCOCC4)cc3)c(=O)[nH]c2=O)cc1	13%
CC1C(c2cccs2)=[N+]([O-])C(C)(C(=O)c2ccc(Cl)cc2)N1O (stereo not given)	-11%
COC(=O)COc1ccc(C[C@@H](C)NC[C@H](O)c2cccc(Cl)c2)cc1	5%
CCOC(=O)CC(SP1(=S)OCC2(CC=CCC2)CO1)C(=O)OCC (stereo not given)	-11%
Cc1cccc(CNCCc2c[nH]c3ccccc23)c1	11%
CCc1ccc(N2C(=O)CC(=O)NC2=O)cc1	-24%
CC(CC(C)(C)N1CC1)=NNC(=O)Nc1cccc2ccccc12	6%
O=c1[nH]c(=S)n(-c2ccc(Br)cc2)c(O)c1C=Nc1ccc(N2CCOCC2)cc1	u
Cc1cc(C(=O)OCC(=O)Nc2ccc(F)cc2)c(C)n1C1CC1	-12%
O=c1cccc2n1C[C@@H]1C[C@@H]2CN(CC(O)c2ccc([N+](=O)[O-])cc2)C1 (stereo not given in full)	-1%
Next part:
SMILES	VDR inhibitor
FC(F)(F)c1cccc(-n2nnnc2C2(N3CCOCC3)CCCCC2)c1	1%
Nc1cccc(N=Cc2c(O)n(Cc3ccc(F)cc3)c(=O)[nH]c2=O)c1	5%
S=C1NCCN1	-3%
Nc1c(C(=O)NCCCc2ccccc2)c2nc3ccccc3nc2n1Cc1cccs1	79µM*
Cc1c(C(c2ccccc2Cl)c2c(O)c3ccccc3oc2=O)c(=O)n(-c2ccccc2)n1C (stereo not given)	4%
O=C1CN=C(c2ccc(Br)cc2)c2oc3ccccc3c2N1	14%
COCC(=O)N1Cc2ccccc2-n2nncc2C1	-22%
COc1c2c(c(CC=C(C)C)c3oc(=O)c(-c4ccc(O)cc4)c(O)c13)OC(C)(C)C=C2	u
CN(C)S(=O)(=O)c1cccc(C(=O)N2CCC(C(=O)O)(c3ccccc3)CC2)c1	-6%
Cc1nn(Cc2ccccc2)c(C)c1C(=O)NCc1ccccc1	-10%
CCCCSP(=O)(SCCCC)SCCCC	-3%
COc1cc(/C=N/NC(=O)CN2CC(c3ccccc3)CC2=O)ccc1OC(=O)N(C)C (stereo not given)	22%
C/C=C1/CC(C)C(C)(O)C(=O)OCC2CCN3CCC(OC1=O)C23 (stereo not given)	3%
CC(=O)CC(c1ccccc1)c1c(O)c2cccc(O)c2oc1=O (stereo not given)	3%
CCOc1ccc(C2SCC(=O)Nc3c2c(=O)[nH]n3C2CCCCCC2)cc1 (stereo not given)	-12%
O=P(c1ccccc1)(c1ccccc1)N1CCCCC1	22%
CN1CCc2cc3c(cc2C1O)OCO3 (stereo not given)	-8%
NC(=O)c1ccc(OCC(O)CN2CC=C(c3ccc(F)cc3)CC2)cc1 (stereo not given)	1%
C/C=C1/CN2C3CC1C(CO)(C(=O)OC)C2Cc1c3n(C)c2ccccc12 (stereo not given)	-9%
Cc1cc(OCC(=O)N2C[C@H]3C[C@@H](C2)c2cccc(=O)n2C3)c2c(C)cc(=O)oc2c1	-20%
COC(=O)C1=C(c2cc3ccccc3s2)C[C@@H]2CC[C@H]1N2C(=O)N1CCCC1	-15%
Nc1ccc(-c2ccc(N)cc2)cc1	10%
COc1ccccc1N1CCN(C2CCCN(C(=O)COc3ccccc3Cl)C2)CC1 (stereo not given)	-10%
CC1CCN(C(=O)c2ccc(N3CC4CC(C3)c3cccc(=O)n3C4)c([N+](=O)[O-])c2)CC1 (stereo not given)	2%
COc1cc(OC)cc(C(=O)NC(=S)N2C[C@H]3C[C@H](C2)c2cccc(=O)n2C3)c1	5%
The list goes on.
SMILES	VDR inhibitor
C[C@]12CCC3C(CCC4=CC(O)CC[C@@]43/C=N/O)C1(O)CCC2C1=CC(=O)OC1 (stereo not given in full)	-2%
CC(C)CC1C(=O)N2CCC[C@H]2[C@]2(O)O[C@](NC(=O)[C@@H]3C=C4c5cccc6[nH]c(Br)c(c56)C[C@H]4N(C)C3)(C(C)C)C(=O)N12 (stereo not given in full)	-20%
COC(=O)N(c1ccc(OC)cc1)P1(=S)OCCC(C)O1 (stereo not given)	u
CCCn1cc(CN2CCCC(C(=O)c3cccc(OC)c3)C2)c(C)n1 (stereo not given)	-2%
CCC(=NCc1ccco1)c1c(O)n(-c2ccc(OC)cc2)c(=O)[nH]c1=O	-16%
Oc1c(Br)cc(Br)cc1CN1CCN(Cc2ccccc2)CC1	-5%
N#CC1=C(N)Oc2c(c(=O)oc3ccccc23)C1c1ccncc1 (stereo not given)	-4%
C=CCn1c(O)c(C(C)=NCCN2CCN(C(=S)NC)CC2)c(=O)[nH]c1=O	-1%
O=c1c2ccccc2nc(-c2ccccc2)n1-c1ccccn1	6%
FC(F)(F)Oc1ccc(NC2=NCCCS2)cc1	9%
CCS(=O)(=O)CCSP(=O)(OC)OC	-13%
O=C(COc1ccccc1F)N1CCN(Cc2cc(=O)n3nc(-c4ccccc4Cl)sc3n2)CC1	12%
COc1cccc(N=Nc2c(O)[nH]c(=S)[nH]c2=O)c1	-1%
Cc1ccc(-n2c(/C=C/c3ccc(Br)s3)nc3ccccc3c2=O)cc1	-6%
COC(=O)C1=C(c2ccc(F)cc2F)C[C@@H]2CC[C@H]1N2C(=O)N1CCC(O)CC1	-2%
O=C1C2CCN(CC2)[C@@H]1Cc1ccc2ccccc2c1O	-7%
CCCN[C@@H]1CCc2c(OC)cccc2[C@@H]1C	-3%&13%
CCC1CCCCN1CC(=O)c1ccc(OC(F)F)cc1 (stereo not given)	1%
COC(=O)C12OCC34C(CC5C(C)=C(O)C(=O)CC5(C)C3C(O)C1O)OC(=O)C(OC(=O)/C=C(\C)C(C)C)C24 (stereo not given)	-3%
O=[N+]([O-])c1ccc(C[n+]2c(-c3ccccc3)cc(-c3ccccc3)cc2-c2ccccc2)cc1	8%
CN(C)c1cc(N)c2c(n1)CCC2 (tested in a mixture with another compound)	-10%
C=C(COC(=O)CCC(=O)O)CC1CC(O)[C@]2(C)OC3CC4OC5C[C@]6(C)O[C@]7(C)CCC8OC9C[C@]%10(C)OC%11C(C)=CC(=O)OC%11CC%10OC9C[C@@H](C)C8OC7CC6O[C@]5(C)C/C=C\C4OC3CC2O1 (stereo not given in full)	-12%
CCN1C(=O)NC(=O)/C(=C/c2cc(C)n(-c3sc(C)c(C)c3C#N)c2C)C1=O	u
CCOC(=O)c1ccc(-[n+]2c(-c3ccccc3)cc(-c3ccccc3)cc2-c2ccccc2)cc1	-12%
C[N+]1(C)CCO[C@](O)(c2ccc(-c3ccc([C@]4(O)C[N+](C)(C)CCO4)cc3)cc2)C1	-1%

Overlap with the part before: 2 entries; new compounds follow.
SMILES	VDR inhibitor
CCOC(=O)c1ccc(-[n+]2c(-c3ccccc3)cc(-c3ccccc3)cc2-c2ccccc2)cc1	-12%
C[N+]1(C)CCO[C@](O)(c2ccc(-c3ccc([C@]4(O)C[N+](C)(C)CCO4)cc3)cc2)C1	-1%
CC[C@H]1CN2CCC1C[C@@H]2[C@@H](O)c1ccnc2ccc(OC)cc12 (stereo not given in full)	18%
CC1=NNC(=O)C1C(c1ccc(F)cc1)C(C#N)C#N (stereo not given)	u
Cc1nc2c(C(=O)N3CCC4(CC3)OCCO4)cnn2c(C)c1Cc1cccc(Cl)c1	5%
CC(=O)N1CCN(c2ccc(N=Cc3c(O)n(-c4ccc(Cl)cc4)c(=O)[nH]c3=O)cc2)CC1	-7%
CC(=O)O[C@@H]1CC[C@]2(C)C3CC[C@]4(C)C(=O)[C@H](O)CC4C3[C@@H](OC(C)=O)C[C@H]2C1 (stereo not given in full)	-12%
Cc1ccc2c(c1)c(=O)c1c3n2CCN(CC2CO2)C3CC1 (stereo not given)	0%
CCN(CC)c1ccc(N=Cc2c(O)n(-c3cc(OC)ccc3OC)c(=O)[nH]c2=O)cc1	-18%
COc1ccc(NC2Oc3cc4c(cc3C(c3cc(OC)c(OC)c(OC)c3)C2C)OCO4)cc1 (stereo not given)	-8%
O=C1CC2OCC=C3CN4CCC56c7cc([N+](=O)[O-])ccc7N1C5C2C3CC46 (stereo not given)	-18%
O=c1[nH]c(=S)[nH]c(O)c1N=Nc1ccc(SC(F)F)cc1	-6%
CC(C)OP(=O)(OC(C)C)C(NCc1ccccc1)c1ccccc1 (stereo not given)	-5%
Cc1ccc(S(=O)(=O)Cc2ccc(C(=O)N3CCC4(CC3)OCCO4)o2)cc1	1%
CCCCC1(CC)COP(=O)(OCC(Cl)(Cl)Cl)OC1 (stereo not given)	1%
CN1C(=O)/C(=C/c2cccn2-c2ccc3ccccc3c2)C(=O)NC1=S	45µM*
COc1ccc(Cl)cc1NC(=O)CN1C(=O)CN=C(c2ccccc2)c2cc(Cl)ccc21	-10%
CC(=Nc1ccc2c(c1)CCC2)c1c(O)n(C2CCCCC2)c(=O)[nH]c1=O	2%
C=C(C)Cn1c(=O)n(CC2CS2)c2ccccc21 (stereo not given)	4%
O=C(NC1CCCCCC1)c1ccc[nH]c1=S	u
Oc1ccc2c(c1)[C@@]13CCCCC1[C@@H](C2)N(CC1CCC1)CC3 (stereo not given in full)	-2%
COc1ccc(OCC(=O)N2CCN(Cc3cc(=O)n4nc(-c5ccccc5C)sc4n3)CC2)cc1	5%
Cc1ccc(OP(=O)(NC(C)c2ccccc2)Oc2ccc(C)cc2)cc1 (stereo not given)	14%
COC(=O)C1=C(c2cccc(OCc3ccccc3)c2)C[C@@H]2CC[C@H]1N2C(=O)NC1CCN(Cc2ccccc2)CC1	11%
CN(C)Cc1c[nH]c2cc([N+](=O)[O-])ccc12	37%[activator]
CCN(CC)c1ccc([N+](=O)[O-])c2cccnc12	-7%
COc1ccccc1NC(=O)COC(=O)c1cc(C)n(C2CC2)c1C	7%
Other records:
SMILES	VDR inhibitor
O=C(Cn1cnc2ccccc2c1=O)NCC(=O)N1CCC2(CC1)OCCO2	13%
COC(=O)C1=C(c2c(C)noc2C)C[C@@H]2CC[C@H]1N2C(=O)NCc1ccc2c(c1)OCO2	0%
C=CCn1c(O)c(C(C)=NCCCN(C)C)c(=O)[nH]c1=O	-13%
CN(C)c1ccc(C2C3C=CC(C3)C2(C#N)C(=O)O)c(Br)c1 (stereo not given)	0%
N#Cc1cccc(NC(=O)N2CCCC3(CCN(C(=O)Oc4ccccc4)CC3)C2)c1	-3%
O=C(COc1ccc(Br)cc1)N1CCN(Cc2ccncc2)CC1	-16%
O=C1CC(c2c(F)cccc2Cl)c2c(c3ccccc3oc2=O)O1 (stereo not given)	-3%
O=C1CC(=O)N(c2ccccc2)C(=O)N1	-9%
C/C(=N/O)c1ccc2ccc3ccccc3c2c1	-1%
COC(=O)c1ccccc1OP(=O)(c1cccc([N+](=O)[O-])c1)c1cccc([N+](=O)[O-])c1	-6%
Cn1c(O)c(/C=N/c2ccccn2)c(=O)n(C)c1=O	5%
Cc1c(C(=O)Nc2ccccc2)c2cc(O)ccc2n1Cc1ccccc1	-3%

Arranged by SMILES length (rising): part of the list above
SMILES	VDR inhibitor
O=C1CC(=O)N(c2ccccc2)C(=O)N1	-9%
C/C(=N/O)c1ccc2ccc3ccccc3c2c1	-1%
CCN(CC)c1ccc([N+](=O)[O-])c2cccnc12	-7%
CN(C)Cc1c[nH]c2cc([N+](=O)[O-])ccc12	37%[activator]
O=C(COc1ccc(Br)cc1)N1CCN(Cc2ccncc2)CC1	-16%
C=CCn1c(O)c(C(C)=NCCCN(C)C)c(=O)[nH]c1=O	-13%
COc1ccccc1NC(=O)COC(=O)c1cc(C)n(C2CC2)c1C	7%
Cc1c(C(=O)Nc2ccccc2)c2cc(O)ccc2n1Cc1ccccc1	-3%
CN(C)c1ccc(C2C3C=CC(C3)C2(C#N)C(=O)O)c(Br)c1 (stereo not given)	0%
O=C(Cn1cnc2ccccc2c1=O)NCC(=O)N1CCC2(CC1)OCCO2	13%
N#Cc1cccc(NC(=O)N2CCCC3(CCN(C(=O)Oc4ccccc4)CC3)C2)c1	-3%
COc1ccc(OCC(=O)N2CCN(Cc3cc(=O)n4nc(-c5ccccc5C)sc4n3)CC2)cc1	5%
COC(=O)C1=C(c2c(C)noc2C)C[C@@H]2CC[C@H]1N2C(=O)NCc1ccc2c(c1)OCO2	0%
COC(=O)c1ccccc1OP(=O)(c1cccc([N+](=O)[O-])c1)c1cccc([N+](=O)[O-])c1	-6%
COC(=O)C1=C(c2cccc(OCc3ccccc3)c2)C[C@@H]2CC[C@H]1N2C(=O)NC1CCN(Cc2ccccc2)CC1	11%

Assay outcomes from PubChem.
